# Compound activity deposited in PubChem by National Center for Advancing Translational Sciences (NCATS).
# GLA inh pH 4.5: qHTS Assay for Inhibitors of Human alpha-Galactosidase at pH 4.5; Alpha-galactosidase A (Homo sapiens), P06280; purified enzyme, 4-MU-alpha-Gal fluorescence, pH 4.5; activity change, negative = inhibition, % at 105 µM; 230,000 tested, under 10 active; AID 1467, 2008; inconclusive = small, poorly fitted or top-dose-only inhibition, or a rising curve; inactive = flat fitted curve, though single readings scatter; no compound was filed as active;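 also: 0% = full activity with enzyme and -100% = basal without enzyme; dose as in the result columns while the protocol names 77 µM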
# Target sequence (P06280 whole entry, looked up): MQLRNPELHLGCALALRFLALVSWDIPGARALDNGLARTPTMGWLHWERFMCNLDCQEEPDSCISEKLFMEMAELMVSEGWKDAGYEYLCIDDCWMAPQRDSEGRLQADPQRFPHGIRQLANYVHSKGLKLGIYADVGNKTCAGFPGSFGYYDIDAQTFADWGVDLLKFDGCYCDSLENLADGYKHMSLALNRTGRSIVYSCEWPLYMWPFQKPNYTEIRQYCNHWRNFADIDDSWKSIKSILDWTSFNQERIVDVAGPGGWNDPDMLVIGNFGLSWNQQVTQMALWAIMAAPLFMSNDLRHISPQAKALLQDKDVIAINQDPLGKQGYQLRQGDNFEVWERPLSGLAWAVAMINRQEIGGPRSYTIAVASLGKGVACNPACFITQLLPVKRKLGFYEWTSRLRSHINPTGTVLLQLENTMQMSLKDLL
# Rango-impB inh: qHTS Assay for Inhibitors of Rango (Ran-regulated importin-beta cargo) - Importin beta complex formation; Potency, µM (top dose mostly 92.2 µM), without a hit: at the top dose inhibition of complex formation; Rango CFP/YFP FRET sensor + importin beta, 45 min; Importin subunit beta-1 (Homo sapiens), Q14974; AID 540263, 2011; 0.031% of 340,000 active; active = rising FRET ratio curve, often small or poorly fitted; inconclusive = mostly compound fluorescence or quenching in the first reads; inactive = flat curves in all reads;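 also: potency is read from the fitted curve at half-maximal effect; 0% = DMSO wells and 100% = buffer wells lacking importin beta; nearly all actives have a fitted effect of over 15% in size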
#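 FRET biosensor Rango (snurportin 1 IBB between N-terminal EYFP and C-terminal Cerulean), 50 nM in PBS/1 mM DTT/0.02% Tween-20/0.1% BSA, preincubated 5 min RT with compound; 0.125 microM importin beta added, 45 min RT, CFP/YFP FRET ratio read.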
# miR-21 reporter: qHTS Assay for Modulators of miRNAs and/orActivators of miR-21; HeLa miR-21 FLuc reporter, luciferase, 48 h; Potency, µM (series often up to 38.3 µM), for the others: at the highest dose reporter change, positive = more light; 340,000 tested, under 10 active; AID 2288, 2010; active = well fitted rising curve with a large enough effect; inconclusive = small, poorly fitted or top-dose-only effect; inactive = no such curve, though single readings can be large or run the other way;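 also: % of control where 0% means no effect; miR-21 action dims this reporter so a rising signal means less miR-21 action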
#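 HeLa miR-21-FLuc reporter line, endogenous miR-21; 2000 cells/well in DMEM/10% FBS; compound titration up to ~40uM final, 48 h, 37 degree Celsius; luciferase detection reagent, 15 min lysis, CCD luminescence.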
# Rango dissoc inh: qHTS Assay for Inhibitors of RanGTP induced Rango (Ran-regulated importin-beta cargo) - Importin beta complex dissociation; Snurportin-1 (Homo sapiens) + GTP-binding nuclear protein Ran (Homo sapiens) + Importin …; Biochemical FRET Rango-importin beta, RanGTP-induced dissociation; Potency, µM (doses to about 46.1 µM), inactives show top-dose activity change, negative = inhibition; 0.071% of 340,000 active; AID 540253, 2011; active means falling FRET ratio curve, often poorly fitted, with flat reads before Ran was added; inconclusive means other falling curves, or compound fluorescence or quenching; inactive means flat or rising ratio curve;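 also: potency is read from the fitted curve at half-maximal effect; % of control where 0% means no effect; nearly all actives have a fitted effect of over 45% in size; -100% = wells without RanGTP and RCC1; the record marks most hits as doubtful in a second field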
#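 FRET read at 45 min, room temperature: inhibitors block the CFP/YFP signal rise when RanGTP (0.6 uM Ran, 2 mM GTP, 0.2 uM RCC1) frees Rango (0.1 uM) from importin beta (0.25 uM). Pre-read after 5 min compound exposure flags interference.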
# Active calls of the source: *; ? = inconclusive; · = no result given; & = joins results of further samples. An excerpt; the hit share may differ from the screen's.
# Sample of the layout (three entries):
SMILES,GLA inh pH 4.5,Rango-impB inh,miR-21 reporter,Rango dissoc inh
Cc1sc(=NC(=O)c2ccco2)n(C)c1-c1ccc(Cl)cc1,5,-2.8%,-45%,-9%
COc1ccc(S(=O)(=O)/N=C2\C=C(NS(=O)(=O)c3ccccc3)C(=O)c3ccccc32)cc1,·,-1.8%,-26%,4%
Cn1c(N)c(Sc2ccc(F)cc2)c(=O)n(C)c1=O,7,6.2%,2%,-10%

# Main list, from the first entry:
SMILES,GLA inh pH 4.5,Rango-impB inh,miR-21 reporter,Rango dissoc inh
Cc1sc(=NC(=O)c2ccco2)n(C)c1-c1ccc(Cl)cc1,5,-2.8%,-45%,-9%
COc1ccc(S(=O)(=O)/N=C2\C=C(NS(=O)(=O)c3ccccc3)C(=O)c3ccccc32)cc1,·,-1.8%,-26%,4%
Cn1c(N)c(Sc2ccc(F)cc2)c(=O)n(C)c1=O,7,6.2%,2%,-10%
CC1CN(CC(=O)NN=C(c2ccccc2)c2ccccc2)CC(C)O1 (configuration not stated),0,2.0%,-6%,10%
Cc1cc(C)n2nc(CNS(=O)(=O)c3ccc(CC(C)C)cc3)nc2n1,·,2.0%,-1%,13%
CCCCn1c(Oc2ccc(C(=O)OC)cc2)nc2c1c(=O)n(C)c(=O)n2C,2,-6.3%,0%,-2%
Cc1cc(Cl)ccc1OCC(=O)Nc1ccncc1,·,-2.5%,2%,27%
COc1ccc(S(=O)(=O)n2nc(OC(=O)C3CCCCC3)cc2N)cc1,0,-0.6%,-5%,-11%
O=S(=O)(NCc1ccccn1)C(F)(F)F,·,2.6%,2%,-17%
CCCCOc1ccc(C(=O)N/C(=C/c2cccc([N+](=O)[O-])c2)C(=O)O)cc1,7,-1.2%,-3%,0%
Cc1noc(C(=O)N2CCN(c3ccccc3)CC2)c1Cl,·,1.4%,0%,8%
Cc1ccccc1NC(=O)COC(=O)[C@@H]1CCCN1C(=O)c1cccs1,·,-3.6%,·,8%
Cc1ccc(OCC(=O)N2CCCc3ccccc32)cc1,1,5.2%,-46%,5%
Cc1ccc2cc(CCNC(=O)C(=O)c3c[nH]c4ccccc34)c(=O)[nH]c2c1,6,1.2%,1%,17%
NN=C(NN=Cc1ccccc1)c1ccccc1,·,-2.8%,·,0%
COc1ccccc1CCNC(=O)C(=O)NCC1OCCCN1S(=O)(=O)c1ccc(F)cc1C (configuration not stated),·,4.4%,5%,-6%
C/C(CCC(C)C)=N\NC(=S)Nc1cc(S(=O)(=O)N2CCOCC2)ccc1N1CCOCC1,-9,2.1%,8%,-10%
O=C(NCCCO)c1ccc2nc(-c3ccco3)c(-c3ccco3)nc2c1,-11,?,2%,?
S=c1[nH]nc(-c2ccccn2)n1/N=C/c1ccc(Cl)cc1,-1,-2.9%,1%,-4%
Cc1ccc(C)c(OCCOCCN2CC(C)OC(C)C2)c1C (configuration not stated),-2,-0.2%,-5%,-3%
COc1ccc(C(=O)N2CCOCC2)cc1Br,-5,2.9%,-17%,12%
CCN(CC)S(=O)(=O)c1ccc2c(c1)c(=O)c(C(=O)NCCN(C)CCc1ccccc1)cn2C,-6,-0.1%,-7%,25%
Cc1cc(C)n(CC(C)NC(=O)c2cc(COc3ccc(F)c(F)c3)on2)n1 (configuration not stated),·,1.0%,-26%,-12%
CC(C)C(NCc1c(Cl)cccc1Cl)C(=O)O (configuration not stated),3,-2.1%,-1%,1%
O=C(Cn1c(S(=O)(=O)Cc2ccccc2)nc2ccccc21)N1CCCCC1,-1,6.9%,9%,-8%
CCCSc1nnc2n(-c3ccccc3OC)c(=O)c3c4c(sc3n12)CCC4,-13,1.5%,-15%,4%
COc1ccc(NS(=O)(=O)c2cc(C(=O)N3CCN(C/C=C/c4ccccc4)CC3)ccc2C)cc1,·,-2.1%,·,-9%
CO/N=C/C(C#N)=C/c1ccc(OC)cc1,8,-1.5%,-44%,3%
CC(C)CNC(=O)C(=O)N/N=C/c1cccs1,-19,-0.2%,-32%,1%
Cc1ccccc1C(=O)c1c[nH]c(C(=O)N=CN(C)C)c1,1,-3.6%,-3%,?
COc1ccc(C(=O)NCCn2cc(SCC(=O)NCC3CCCO3)c3ccccc32)cc1 (configuration not stated),·,-0.2%,1%,14%
O=C(c1ccccc1)C1CCN(C(=O)c2ccco2)CC1,·,-0.2%,-7%,9%
O=C(NCC1COc2ccccc2O1)C1CCN(S(=O)(=O)c2cccc3nsnc23)CC1 (configuration not stated),7,-5.9%,0%,-11%
CCCc1nnc(NC(=O)c2nc(S(=O)(=O)Cc3cccc(C)c3)ncc2Cl)s1,·,?,?,0%
CC(C)Oc1ccc(C(=O)OCC(=O)NCCNC(=O)COC(=O)c2ccc(OC(C)C)cc2)cc1,·,-0.1%,11%,26%
O=C(CCCCCn1c(=S)[nH]c2cc3c(cc2c1=O)OCO3)N1CCN(C(=O)c2ccco2)CC1,5,-3.8%,1%,-8%
CN(Cc1ccccc1F)C(=O)c1ccc(Oc2ccccc2)cc1,·,-2.1%,-23%,6%
CNc1snc(C)c1C(=O)OCC(=O)c1cc(F)ccc1OC,·,-4.3%,·,-1%
CC1CN(S(=O)(=O)c2ccc(C(=O)Nc3nnc(-c4ccccn4)o3)cc2)CC(C)O1 (configuration not stated),4,-1.5%,0%,-10%
O=C(NC1CCCC1)C1CCN(C(=O)c2ccccc2Cl)CC1,·,-1.5%,-2%,-5%
CC1CC(C)CN(S(=O)(=O)c2cc3c(cc2Cl)NC(=O)CO3)C1 (configuration not stated),·,0.0%,0%,7%
C[C@H](C(=O)CC(=O)OC(C)(C)C)[C@H](O)c1ccc(C(F)(F)F)cc1,·,5.3%,0%,14%
CCOC(=O)C1=C(C)N(C)C(C)=C(C(=O)OCC)C1c1ccccn1,-2,-4.0%,-1%,-2%
CCN(CC)CCNC(=O)c1cc2c(-c3cccc(OC)c3)nn(C)c2s1,·,-3.0%,0%&11%,-1%
COc1ccccc1C(=O)Nc1nnc(S(=O)(=O)N2CCN(c3ccc(F)cc3)CC2)s1,·,-4.5%,-6%&-8%,-4%
CCn1c(Cc2c(C)[nH]c3ccccc23)nnc1SCC(=O)NCc1ccccc1,-14,?,-3%,-23%
Fc1ccc(CN2CCC(Cc3ccccc3)CC2)cc1F,·,-1.7%,4%,14%
Cc1c(NC(=O)COC(=O)C2(c3ccc(F)cc3)CCCC2)c(=O)n(-c2ccccc2)n1C,6,-4.2%,-1%,-7%
CCN(C(=O)COC(=O)c1ccc2c(c1)OCO2)c1ccccc1,·,3.4%,·,2%
CCN(CC(=O)Nc1cc(Cl)ccc1C)C(=O)CN1C(=O)NC2(CCCC2)C1=O,·,-5.0%,·,12%
Cc1ccc(S(=O)(=O)NCC(=O)OC(C)C(=O)c2ccccc2)cc1 (configuration not stated),·,8.9%,·,4%
COc1cccc2c(=O)n(CC(=O)Nc3ccccc3)ccc12,7,2.9%,-8%,5%
CCCN1C(=O)c2ccc(C(=O)Nc3cc(C)ccc3O)cc2C1=O,·,-0.4%,-8%,-7%
CCc1cc2c(=O)n(CC)c(SC(C)C(=O)Nc3c(C)n(C)n(-c4ccccc4)c3=O)nc2s1 (configuration not stated),-1,-1.0%,-2%,17%
Cc1c(C(=O)Nc2cccc3cccnc23)oc2ccccc12,2,1.4%,-12%,2%
Cc1c(CCC(=O)O)c(=O)oc2cc3oc4c(c3cc12)CCCC4,5,0.3%,25%,2%
Cc1cc(OCCCC(=O)NC2=NCCS2)ccc1Cl,9,-1.2%,-13%,-9%
O=C(O)c1cc(-c2ccc3c(c2)OCO3)nc2ccccc12,0,3.8%,-6%,-4%
COc1cc(/C=N/Nc2cc(C)nc(NS(=O)(=O)c3ccccc3)n2)ccc1O,-15,0.1%,-11%,33%
O=C(Nc1ccc(Cc2ccncc2)cc1)c1ccc(N2CCOCC2)c([N+](=O)[O-])c1,-5,-1.1%,29%,-2%

# Reprinted at random: two entries already listed
SMILES,GLA inh pH 4.5,Rango-impB inh,miR-21 reporter,Rango dissoc inh
CCN(CC)CCNC(=O)c1cc2c(-c3cccc(OC)c3)nn(C)c2s1,·,-3.0%,0%&11%,-1%
CCN(CC(=O)Nc1cc(Cl)ccc1C)C(=O)CN1C(=O)NC2(CCCC2)C1=O,·,-5.0%,·,12%

# A different layout for three compounds above.
# Values in the order: GLA inh pH 4.5, Rango-impB inh, miR-21 reporter, Rango dissoc inh
- CCCN1C(=O)c2ccc(C(=O)Nc3cc(C)ccc3O)cc2C1=O
→ ·, -0.4%, -8%, -7%
- CCc1cc2c(=O)n(CC)c(SC(C)C(=O)Nc3c(C)n(C)n(-c4ccccc4)c3=O)nc2s1 (configuration not stated)
→ -1, -1.0%, -2%, 17%
- Cc1c(C(=O)Nc2cccc3cccnc23)oc2ccccc12
→ 2, 1.4%, -12%, 2%

# (list continues)
SMILES,GLA inh pH 4.5,Rango-impB inh,miR-21 reporter,Rango dissoc inh
Cn1c(=O)c2[nH]c(C=Cc3ccc4c(c3)OCO4)nc2n(C)c1=O,·,?,·,-11%
COC(=O)CSc1nsc(SCC(=O)OC)c1C#N,7,-2.3%,-2%,14%
COc1cc([N+](=O)[O-])ccc1NC(=O)CCCOc1cccc(C)c1C,-13,-3.7%,-16%,-11%
COC(=O)Cc1c(C)c2ccc(OCC(=O)N(C)C3CCS(=O)(=O)C3)cc2oc1=O (configuration not stated),·,2.5%,2%,4%
O=c1[nH]ncn1-c1cccc(C(F)(F)F)c1,-11,3.4%,-4%,16%
Cc1ccc(Oc2c(CO)c(-c3ccccc3)nn2C)cc1,6,-2.0%,16%,-9%
O=C(NCCC1=CCCCC1)C(=O)NCC1OCCCN1S(=O)(=O)c1ccc(F)cc1 (configuration not stated),-10,-2.0%,2%,6%
CCOC(=O)N1CCN(C(=O)c2cc3n(n2)C(C(F)(F)F)CC(c2ccc4c(c2)OCO4)N3)CC1 (configuration not stated),·,1.2%,-2%,6%
COc1ccccc1NC1=C(C)C(=O)CC1,7,-2.5%,0%,1%
Cc1c(C(=O)N2CCN(c3ccccc3F)CC2)sc2ncn(CC(=O)N3CCOCC3)c(=O)c12,-5,3.5%,-2%,0%
CCN(C[C@H]1N[C@@](CC)(C(=O)OC)[C@H]2C(=O)N(C)C(=O)[C@@H]12)C(=O)COc1ccccc1,·,-0.8%,·,1%
CN1CCN(C(=O)c2cc(-c3cccc(Cl)c3)on2)CC1,-2,0.5%,-48%,5%
O=[n+]1cc(-c2ccccc2)n([O-])c2c1CCCCC2,-2,-3.7%,-15%,12%
CN(C)S(=O)(=O)c1ccc(N2CCCC2)c(C(=O)NNC(=O)COc2ccccc2F)c1,·,0.4%,·,-10%
CCc1nnc(NS(=O)(=O)c2ccc(NC(=O)c3cccc([N+](=O)[O-])c3)cc2)s1,·,-2.0%,-1%,-11%
O=C(CCn1cccc1)NCc1ccc2c(c1)OCO2,5,-0.1%,-9%,10%
Cc1ccc(CCNC(=O)Cc2ccc(NC3=NC4CS(=O)(=O)CC4S3)cc2)cc1 (configuration not stated),·,2.3%,-2%,9%
CCn1c(C)cc(/C=C2/NC(=O)N(c3ccccc3)C2=O)c1C,5,?,-39%,-27%
O=C(CN(Cc1ccc(Cl)cc1)C(=O)CNS(=O)(=O)c1ccc(F)cc1)NCC1CCCO1 (configuration not stated),·,-0.9%,-2%,-8%
Cc1nn(-c2ccccc2)c2nc(-c3ccccc3)cc(C(=O)N3CCOCC3)c12,-6,-8.2%,6%,-13%
O=C(Nc1ccc2ccccc2c1)[C@@H]1C[C@H]1[C@@H](NP(=O)(c1ccccc1)c1ccccc1)c1ccccc1,9&-12,-0.3%,0%,-10%
CCC(=O)Oc1ccc2c(C)cc(=O)oc2c1C,?,?,2%,?
Cc1cccc(C(=O)OCC(=O)N(C)CC(=O)Nc2ccc(Cl)c(C(F)(F)F)c2)c1,·,3.7%,·,-1%
